HNF4A DNA FP = change in binding of human HNF4A to DNA, primary screen, biochemical, fluorescence polarization, FITC-DNA; activity change, % at 10 µM; 1 h; AID 1224865, 2016; Hepatocyte nuclear factor 4-alpha (Homo sapiens), P41235; hit rate 0.3% among 360,000; in the data active means activity change above about 30%, passing the limit was not always enough;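 further: controls were the assay level and a saturating level of protein; the project sought stronger binding though the title names inhibitors; some compounds called inactive have numbers as strong as hits; positive values seem to mean higher polarization but the record does not say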
B2AR ag = beta2AR agonists driving receptor internalization, primary screen, cell-based, FAP fluorogen, flow cytometry. Beta-2 adrenergic receptor (Homo sapiens), P07550. Am2.2-beta2AR cells; reference of the scale not given here. response, % (no concentration beside the values). hit rate 0.43% among 340,000;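 active means response above a set limit, near 3 SD of response in nonfluorescent compounds, cut at about 42% in these data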;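 further: stock transfer was 100 nL into about 11 µL; a reference agonist was the positive control; negative values mostly stem from fluorescent compounds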
Target sequence (P07550 whole entry, looked up): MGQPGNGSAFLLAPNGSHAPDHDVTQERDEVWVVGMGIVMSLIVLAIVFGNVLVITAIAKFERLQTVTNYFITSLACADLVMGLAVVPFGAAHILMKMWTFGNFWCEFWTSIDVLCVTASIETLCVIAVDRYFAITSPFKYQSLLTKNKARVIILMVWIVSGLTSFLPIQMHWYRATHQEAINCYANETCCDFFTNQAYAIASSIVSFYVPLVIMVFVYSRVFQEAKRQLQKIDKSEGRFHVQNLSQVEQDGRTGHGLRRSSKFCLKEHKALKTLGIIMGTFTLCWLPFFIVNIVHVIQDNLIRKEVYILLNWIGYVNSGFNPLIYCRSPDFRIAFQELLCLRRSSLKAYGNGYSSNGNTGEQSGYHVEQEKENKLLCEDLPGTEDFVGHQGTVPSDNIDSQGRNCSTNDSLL
UCH37 DUB inh = inhibitors of human UCH37 deubiquitinase, primary screen, biochemical, Ub-AMC cleavage, fluorescence | purified proteasome/UCH37 | inhibition, % (no concentration beside the values) | hit rate 0.33% among 330,000;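 active means mean of two replicates above 20%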;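 further: 0% = compound-free wells with enzyme and 100% = wells lacking proteasome; stock transfer was 100 nL into about 20 µL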
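Assay system: Proteasome-bound UCH37. Buffer or medium: pH 7.4 Tris-HCl (50 mM) with ovalbumin, ATP-MgCl2, DTT. Incubation: 30 min preincubation with enzyme, 25 min cleavage at room temperature. Measured by: fluorescence, ex 355 nm, em 460 nm. Read-out basis: percent inhibition. Control set: wells without proteasome as full block, compound-free enzyme plus substrate as uninhibited.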
rRNA inh HTS = reduced GFP signal of wild-type E. coli, primary screen, bacterial rRNA inhibitor project, GFP/RFP fluorescence, OD600, single point | E. coli WT GFP vs humanized-ribosome RFP mutants, 24 h; hits give low values; DMSO median 0, no signal -100 | GFP signal change (wild-type ribosome), % (concentration not given with the values) | hit rate 1.6% among 350,000 | AID 720706, 2013;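 active means significant combined selectivity score with lowered wild-type GFP, culture density cut under 30%, mutant RFP and density less affected; inactive means any of these conditions unmet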; further: one replicate is shown; some compounds called inactive have numbers as strong as hits
FGF22 binding = binders of human FGF22 protein, primary screen, FGF22 synaptogenesis inhibitor project, biophysical, thermal shift, single point | hit rate 1.5% among 340,000 | recombinant FGF22 thermal shift, SYPRO orange fluorescence; percent of sucrose octasulfate shift, DMSO zero | Fibroblast growth factor 22 (Homo sapiens), Q9HCT0 | calls only at 9.99 µM;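 active means melting point raised past a set limit in the mean and every replicate; three in four hits are not shown here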
Target sequence (Q9HCT0 whole entry, looked up): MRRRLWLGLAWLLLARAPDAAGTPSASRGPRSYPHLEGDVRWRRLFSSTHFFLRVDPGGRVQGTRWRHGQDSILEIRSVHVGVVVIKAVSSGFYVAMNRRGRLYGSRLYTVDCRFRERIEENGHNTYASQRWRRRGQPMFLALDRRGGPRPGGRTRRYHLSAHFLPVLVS
Ecoli growth = E. coli growth inhibition, primary screen, OD600. Escherichia coli growth, 23 h; hits give low values. OD600 absorbance (no concentration beside the values). hit rate 0.21% among 330,000. AID 1053175, 2014;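 active means OD600 absorbance below the run mean of sample wells minus 3.6 SD, in any replicate, cut at about 0.56 in these data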;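 further: stock transfer was 300 nL into about 60 µL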
ALR H2O2 inh = inhibitors of human ALR sulfhydryl oxidase, primary screen, biochemical, H2O2 detection, HRP-luminol luminescence, single point; purified ALR, DTT oxidation; inhibition, % (concentration not given with the values); hit rate 3.8% among 290,000; FAD-linked sulfhydryl oxidase ALR (Homo sapiens), P55789;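 active means mean and each replicate at 75% or more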;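 further: stock transfer was 7.5 nL into about 7.5 µL; 0% = neutral wells and 100% = wells with inactivated enzyme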
Target sequence (P55789 whole entry, looked up): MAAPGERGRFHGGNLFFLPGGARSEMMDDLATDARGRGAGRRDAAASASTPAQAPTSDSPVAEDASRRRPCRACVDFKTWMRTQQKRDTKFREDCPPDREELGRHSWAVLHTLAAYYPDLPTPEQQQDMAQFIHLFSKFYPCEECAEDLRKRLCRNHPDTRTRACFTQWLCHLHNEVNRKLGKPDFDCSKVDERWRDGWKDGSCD
rRNA inh HTS OD600 = recorded beside rRNA inh HTS, whose call it bears; OD600 change, %; measured here: OD600 growth;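 optical density of the mix in the first replicate; 0 = DMSO median and -100 = no signal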
rRNA inh HTS RFP = further read-out of rRNA inh HTS, marked with its call; RFP signal change, %; measured here: RFP humanized mutant strains;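 first replicate; 0 = DMSO median and -100 = no signal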
Active calls of the source: *; i = inactive; . = no result given. An excerpt; count on the stated rates, not on these rows.

SMILES	HNF4A DNA FP	B2AR ag	UCH37 DUB inh	rRNA inh HTS	rRNA inh HTS OD600	rRNA inh HTS RFP	FGF22 binding	Ecoli growth	ALR H2O2 inh
CC(C)COc1ccc(C(=O)OCC(=O)NCCC2=CCCCC2)cc1	-0.6	-3	1.9	3	7	-1.5	i	0.68	.
Cc1cccc(NC(=O)CCOc2ccccc2)c1C	-1.7	5	-1.0	5	4	0.7	i	0.67	0
COc1cc(NC(=O)c2cc(OC)c(OC)c(OC)c2)ccc1NC(=O)c1cccs1	-0.4	10	3.5	5	12	-0.5	i	0.69	2
CCCCn1c(N)c(N(CCOC)C(=O)CSc2nc3ccc(C)cc3[nH]2)c(=O)[nH]c1=O	-3.8	11	-0.9	.	.	.	.	0.67	.
COc1ccc(Cn2c(/C=C/c3ccccc3)nc3ccccc32)cc1	0.1	-6	i	.	.	.	.	0.74	-21
O=C(CSc1ccc2c(c1)OCCO2)Nc1ncc(Cl)cc1Cl	1.2	-5	1.4	.	.	.	.	0.71	1
CCN1CCN(Cc2nc3ccc([N+](=O)[O-])cc3c(=O)n2-c2ccc(OC)cc2OC)CC1	-1.6	-3	3.5	-5	-8	0.3	i	0.7	-69
CCc1nnc(NC(=O)CSc2nnc(COc3ccccc3)n2-c2ccc(C)cc2)s1	-3.0	4	-1.2	.	.	.	.	0.74	.
CCOC(=O)c1cc2c(c(-c3ccccc3)n1)[C@H](CCO)N(S(=O)(=O)C(C)(C)C)C2	4.1	-4	4.8	2	9	-0.1	i	0.69	.
Cc1noc(C)c1COc1ccc(C(=O)OCC(=O)Nc2c(C)n(C)n(-c3ccccc3)c2=O)cc1	1.4	-2	0.3	3	2	-1.1	i	0.67	12
CN(CCc1ccccn1)C1CCCN(S(=O)(=O)c2ccccc2)C1 (stereo unspecified)	2.8	-3	1.3	2	1	-3.6	i	0.72	-5
Cc1cc(=O)n2nc(N3CCC(C(=O)N4CCN(C)CC4)CC3)sc2n1	-1.7	4	2.6	.	.	.	.	0.72	-2
O=C(Nc1cc(Cl)ccc1C(=O)O)c1ccc(CN2C(=O)c3ccccc3C2=O)cc1	-2.9	-6	.	-12	-16	-0.4	i	.	.
OCC[C@H]1C[C@@H](O)[C@H](O)[C@]2(OCc3ccccc32)O1	-0.4	5	2.4	4	9	-0.7	i	.	-3
CCOc1ccc(NS(=O)(=O)c2ccc3c(c2)CCN3C(=O)CCC(=O)O)cc1	4.8	15	-1.3	.	.	.	.	0.76	4
Cc1cc(C(=O)NC2CCCc3c2cnn3-c2cccc(C)c2C)no1 (stereo unspecified)	4.4	-5	4.7	-3	-9	-2.2	i	0.71	-9
CO/N=C/C(C#N)=C/c1cc(C(=O)c2ccccc2)cn1C	1.4	-2	.	-12	4	1.9	i	.	-3
O=C(Cn1c(=O)oc2ccc(Cl)cc21)NC1CCCCC1	-2.5	0	-0.7	5	9	-0.7	i	0.7	0
COc1cc2c(cc1OC)CN(C(=S)Nc1ccccc1Cl)CC2	-0.6	6	-2.5	-7	-13	-0.2	i	0.43*	.
CCOC(=O)N1CCN(C(=O)C2CCN(S(=O)(=O)c3cc(Cl)ccc3Cl)CC2)CC1	-2.6	-6	3.8	.	.	.	.	0.71	-10
COCCCNc1nc2ccccc2nc1NS(=O)(=O)c1ccc(C)cc1	-1.7	7	-65	2	0	-3.4	i	0.69	1
CCOC(=O)N1CCN(S(=O)(=O)c2ccc(OC)c(Cl)c2Cl)CC1	1.2	-11	4.5	.	.	.	.	0.78	-10
CC(=O)N(C(C)=O)n1c(/C=C/c2cccc([N+](=O)[O-])c2)nc2ccccc2c1=O	0.2	-2	-1.5	6	5	-3.0	i	0.69	.
Cc1ccc(Nc2nc(-c3cccnc3)cs2)cc1C	1.8	-1	0.5	-11	0	0.4	i	0.67	2
COc1ccc(OC)c(S(=O)(=O)ON2C(=O)c3ccccc3C2=O)c1	-2.7	-1	1.3	9	8	-0.1	.	0.67	-6
COc1ccc(C(=O)C2CCCN(C(=O)c3noc4c3CCCC4)C2)c(C)c1 (stereo unspecified)	1.3	-3	3.9	-15	-11	3.2	i	0.71	10
Cc1ccc(NC(=O)COC(=O)C2(CC(=O)NC(C)(C)C)CCCC2)cc1C	0.5	4	-2.9	-9	-46	33	i	0.66	5
O=C(CNC(=O)c1ccccc1Cl)N/N=C/c1ccc([N+](=O)[O-])s1	5.5	0	.	7	3	4.2	i	.	-40
CCOC(=O)N1CCN(c2c(N3CCN(c4cc(C)ccc4C)CC3)c(=O)c2=O)CC1	-4.3	0	3.8	2	4	-0.8	i	0.72	-8
CN1OC[C@@H]2CN(Cc3ccc(Cl)cc3)[C@H](c3ccc(N4CCCCC4)cc3)C[C@@H]21	11	.	.	-16	-29	32	i	.	.
O=C(NN1CCOCC1)c1cc(-c2ccc(Br)s2)nc2ccccc12	3.9	-10	-72	4	-3	0.2	i	0.69	-5
CCC[C@@H](O)c1cc2cc(OC)c(OC)cc2c(=O)o1	6.4	4	2.3	5	16	-0.6	i	.	-12
COC(=O)c1cn(CCOc2ccccc2F)c2ccccc12	1.8	13	3.3	.	.	.	.	0.69	.
O=C(CN1CCCC1)NC1C2CC3CC(C2)CC1C3 (stereo unspecified)	2.4	1	1.6	5	6	1.6	.	0.71	0
Cc1cc2occ(CC(=O)N(CCC(C)C)c3c(N)n(Cc4ccccc4)c(=O)[nH]c3=O)c2cc1C	0.1	1	1.4	11	12	0.5	i	0.62	32
COc1ccc(-c2cc(C(=O)NN)n(-c3ccccc3)n2)cc1	2.0	-17	3.9	-3	6	5.5	i	0.71	-15
O=C(NCC(=O)N1CC=C(c2ccccc2)CC1)c1ccc(OC(F)F)cc1	3.1	-9	-0.5	.	.	.	i	0.7	-6
CNC(=O)c1[nH]cnc1C(=O)Nc1cccc(C)c1	-6.5	-4	-34	23	22	6.8	i	0.7	-12
COc1ccccc1NC(=S)NC(=O)C(C)C	4.2	0	3.5	.	.	.	.	0.65	5
CCCc1[nH]nc2c1C(c1cccnc1)C(C#N)=C(N)O2 (stereo unspecified)	-1.0	0	1.4	.	.	.	.	0.76	9
Cc1ccc(S(=O)(=O)NCCC(c2ccccc2)c2ccco2)cc1 (stereo unspecified)	-0.4	1	5.0	.	.	.	.	0.72	10
CCOC(=O)N1CCC(N2CCCC(CO)(Cc3cccc(Cl)c3)C2)CC1 (stereo unspecified)	6.2	4	0.1	3	0	14	i	0.68	-3
Cc1cccc(-c2n[nH]c([N+](=O)[O-])n2)c1	-0.9	2	7.9	.	.	.	.	0.66	-13
CCN(CC)S(=O)(=O)c1ccc(N2CCCC2)c(NC(=O)c2ccc(OC)cc2OC)c1	4.7	6	0.5	-22	-8	13	i	0.74	-3
O=C(CCNS(=O)(=O)c1cccc2nsnc12)Nc1ccc2c(c1)OCCO2	-3.3	-6	7.7	.	.	.	.	0.71	-10
O=C(Cn1ncc2c3ccccc3n(Cc3ccccc3)c2c1=O)N1CCN(c2ccccn2)CC1	-1.1	-17	-1.0	.	.	.	.	0.73	-3
CN(CCO)Cc1csc2ccc(Br)cc12	0.1	-2	5.1	.	.	.	.	0.76	2
O=C(OCc1cn([C@H]2CN(C(=O)C3CCCCC3)[C@@H](c3ccc(Cl)cc3)C[C@@H]2O)nn1)c1ccccc1	-0.3	.	.	-5	2	-3.3	i	.	.
COc1cc(C(=O)Nc2ccc3c(c2)N(C(=O)CCN(C)C)c2ccccc2CC3)cc(OC)c1OC	-1.6	1	0.7	-1	1	0.5	i	0.69	-3
CC(C)CN(c1ccccc1)S(=O)(=O)c1nnc(NC(=O)c2ccco2)s1	-3.9	3	2.8	-9	-44	-8.4	i	0.7	32
COC(=O)c1n[nH]c2ccccc12	-2.1	-1	-0.7	.	.	.	.	0.76	1
CCOc1ccccc1N1CC(O)=C(c2nc3ccccc3s2)C1=N	7.7	17	-13	-8	-8	8.1	i	0.71	0
COc1cc(/C=C/C(=O)OCC(=O)NC2CCS(=O)(=O)C2)ccc1OC(F)F (stereo unspecified)	5.8	3	-11	6	17	-0.2	i	0.72	-1
COc1ccccc1C(=O)Nc1ccc(N2CCN(S(C)(=O)=O)CC2)cc1	0.7	-3	1.5	.	.	.	.	0.69	.
O=C(c1ccc(CNc2c(N3CCOCC3)c(=O)c2=O)cc1)N1CC=C(c2ccccc2)CC1	-3.6	-7	7.1	-4	-4	-6.2	i	0.72	4
O=c1c2ccccc2nc(/C=C/c2ccc(Cl)cc2)n1CCO	-5.1	-4	-105	-7	-6	3.3	i	0.62	-13
CC(C)c1cc(NC(=O)C(C)(C)C)cc(C(C)C)c1O	1.5	2	1.6	.	.	.	.	0.7	-6
CN1C(=O)Cc2cc(S(=O)(=O)NCc3cccs3)ccc21	-1.8	-5	-0.3	9	10	-6.9	i	0.69	11
Cc1ccc(S(=O)(=O)NCCC(c2ccccc2)c2ccccc2)cc1C(=O)O	9.3	-1	3.5	-40*	-24*	-14*	i	0.73	-4
Cn1c2c(c(=O)n(C)c1=O)C(c1ccc(F)cc1)C(C#N)=C(N)O2 (stereo unspecified)	3.3	1	5.5	-3	-1	-1.9	i	0.73	3
Cc1ccc(OCCSc2nnc(-c3ccncc3)n2C)cc1	-1.3	-3	2.1	.	.	.	.	0.69	-5

Part of the list above in order of length of the SMILES, falling.
SMILES	HNF4A DNA FP	B2AR ag	UCH37 DUB inh	rRNA inh HTS	rRNA inh HTS OD600	rRNA inh HTS RFP	FGF22 binding	Ecoli growth	ALR H2O2 inh
O=C(OCc1cn([C@H]2CN(C(=O)C3CCCCC3)[C@@H](c3ccc(Cl)cc3)C[C@@H]2O)nn1)c1ccccc1	-0.3	.	.	-5	2	-3.3	i	.	.
COc1cc(C(=O)Nc2ccc3c(c2)N(C(=O)CCN(C)C)c2ccccc2CC3)cc(OC)c1OC	-1.6	1	0.7	-1	1	0.5	i	0.69	-3
COc1cc(/C=C/C(=O)OCC(=O)NC2CCS(=O)(=O)C2)ccc1OC(F)F (stereo unspecified)	5.8	3	-11	6	17	-0.2	i	0.72	-1
Cn1c2c(c(=O)n(C)c1=O)C(c1ccc(F)cc1)C(C#N)=C(N)O2 (stereo unspecified)	3.3	1	5.5	-3	-1	-1.9	i	0.73	3
O=C(CCNS(=O)(=O)c1cccc2nsnc12)Nc1ccc2c(c1)OCCO2	-3.3	-6	7.7	.	.	.	.	0.71	-10
CCOC(=O)N1CCC(N2CCCC(CO)(Cc3cccc(Cl)c3)C2)CC1 (stereo unspecified)	6.2	4	0.1	3	0	14	i	0.68	-3
CN1C(=O)Cc2cc(S(=O)(=O)NCc3cccs3)ccc21	-1.8	-5	-0.3	9	10	-6.9	i	0.69	11
CC(C)c1cc(NC(=O)C(C)(C)C)cc(C(C)C)c1O	1.5	2	1.6	.	.	.	.	0.7	-6
Cc1ccc(OCCSc2nnc(-c3ccncc3)n2C)cc1	-1.3	-3	2.1	.	.	.	.	0.69	-5
CN(CCO)Cc1csc2ccc(Br)cc12	0.1	-2	5.1	.	.	.	.	0.76	2

Assay outcomes from PubChem BioAssay.
